# Screening results deposited in PubChem by National Center for Advancing Translational Sciences (NCATS).
# Rango complex inh – prevents formation of the Rango-importin beta complex | 0.031% of 340,000 active | AID 540263 | Rango CFP/YFP FRET sensor + importin beta, 45 min | Q14974 | Potency, µM (top dose mostly 92.2 µM), for the others: at the highest dose inhibition of complex formation; active = rising FRET ratio curve, often small or poorly fitted; inconclusive = mostly compound fluorescence or quenching in the first reads; inactive = flat curves in all reads;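 further: potency means the concentration at half of the fitted maximal effect; 0% = DMSO wells and 100% = buffer wells lacking importin beta; nearly all actives have a fitted effect of over 15% in size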
#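 Inhibition scored from the CFP 486 nm/YFP 530 nm FRET ratio 45 min after adding 0.125 microM importin beta to 50 nM Rango biosensor preincubated 5 min with compound (room temperature, PBS with DTT, Tween-20, BSA). No-importin wells as positive control.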
# miR-21 FLuc – raises the signal of a miR-21 reporter | HeLa miR-21 FLuc reporter, luciferase, 48 h | Potency, µM (highest dose often 38.3 µM), inactives show at the highest dose reporter change, positive = more light | 340,000 tested, under 10 active; active = well fitted rising curve with a large enough effect; inconclusive = small, poorly fitted or top-dose-only effect; inactive = no such curve, though single readings can be large or run the other way;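 further: % of control where 0% means no effect; miR-21 action dims this reporter so a rising signal means less miR-21 action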
#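 Compounds were titrated across several concentrations (up to approximately 40 uM) and incubated 48 hours with HeLa miR-21-FLuc reporter cells (miR-21 target sequence downstream of FLuc, endogenous miR-21). Readout was firefly luciferase luminescence after lytic detection reagent.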
# GLA inh pH 4.5 – alpha-galactosidase A (human) inhibition, pH 4.5. P06280. purified enzyme, 4-MU-alpha-Gal fluorescence, pH 4.5. activity change, negative = inhibition, % at 105 µM. 230,000 tested, under 10 active. AID 1467; inconclusive = small, poorly fitted or top-dose-only inhibition, or a rising curve; inactive = flat fitted curve, though single readings scatter; no compound was filed as active;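 further: 0% = full activity with enzyme and -100% = basal without enzyme; dose as in the result columns while the protocol names 77 µM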
# Target sequence (P06280 whole entry, looked up): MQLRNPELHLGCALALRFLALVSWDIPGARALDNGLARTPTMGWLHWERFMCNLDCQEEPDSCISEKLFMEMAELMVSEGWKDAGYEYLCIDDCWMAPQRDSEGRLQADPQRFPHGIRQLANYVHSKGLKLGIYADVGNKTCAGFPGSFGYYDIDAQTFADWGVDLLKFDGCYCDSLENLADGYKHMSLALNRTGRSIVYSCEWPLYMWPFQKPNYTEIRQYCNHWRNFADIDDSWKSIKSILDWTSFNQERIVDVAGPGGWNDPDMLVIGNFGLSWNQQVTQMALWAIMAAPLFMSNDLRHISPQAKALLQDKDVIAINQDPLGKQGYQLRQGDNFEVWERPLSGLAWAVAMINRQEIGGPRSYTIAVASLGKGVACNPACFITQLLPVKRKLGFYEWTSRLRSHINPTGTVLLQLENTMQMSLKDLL
# Rango release inh – prevents RanGTP from dissociating the Rango-importin beta complex; Potency, µM (doses to about 46.1 µM), without a hit: at the top dose activity change, negative = inhibition; O95149+P62826; Biochemical FRET Rango-importin beta, RanGTP-induced dissociation; 0.071% of 340,000 active; active means falling FRET ratio curve, often poorly fitted, with flat reads before Ran was added; inconclusive means other falling curves, or compound fluorescence or quenching; inactive means flat or rising ratio curve;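 further: potency means the concentration at half of the fitted maximal effect; % of control where 0% means no effect; nearly all actives have a fitted effect of over 45% in size; -100% = wells without RanGTP and RCC1; the record marks most hits as doubtful in a second field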
#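 FRET read at 45 min, room temperature: inhibitors block the CFP/YFP signal rise when RanGTP (0.6 uM Ran, 2 mM GTP, 0.2 uM RCC1) frees Rango (0.1 uM) from importin beta (0.25 uM). Pre-read after 5 min compound exposure flags interference.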
# An asterisk follows results filed as active; ? = inconclusive; . = no result given.
canonical_smiles,Rango complex inh,miR-21 FLuc,GLA inh pH 4.5,Rango release inh
CC(=O)Nc1ccc(NC(=O)CSc2nc(=O)n(Cc3ccncc3)c3c2CCC3)cc1,-4.4%,.,.,-12.2%
Cc1cc(C(=O)COc2cccc(-n3cnnn3)c2)c(C)n1-c1ccccc1,0.9%,12.9%,-2.8,17.9%
c1ccc(C2=Nc3ccccc3SC2c2nc3ccccc3[nH]2)cc1 (stereo unspecified),.,16.6%,8.7,.
CCOC(=O)N1CCN(C(=O)c2ccccc2NS(=O)(=O)c2ccc(C)cc2)CC1,-2.3%,-2.5%,.,-3.0%
COc1cc(C2c3c(oc4ccccc4c3=O)C(=O)N2Cc2ccncc2)ccc1O (stereo unspecified),0.6%,-0.7%,1.8,0.7%
CC(C)COc1ccc(Br)cc1CNC(C)(C)C,-4.6%,-0.2%,-0.8,-14.2%
Nc1nc(NCCOCCO)nc(NCc2ccccc2)c1[N+](=O)[O-],-0.7%,-16.0%,.,-17.2%
CNS(=O)(=O)c1cccc(C(=O)OCC(=O)c2ccc3[nH]c(=O)[nH]c3c2)c1,-2.6%,.,.,-1.0%
O=[N+]([O-])c1ccc(Oc2cccc(Br)c2)c2ccncc12,?,-0.5%,5.5,7.5%
NC(N)=NS(=O)(=O)c1ccc(NC(=S)NC(=O)c2ccccc2)cc1,-10.9%,-8.3%,-2.2,0.7%
Cc1ccc(NC(=O)N2CCCC2C(=O)NCc2ccc3c(c2)OCO3)cc1 (stereo unspecified),-0.6%,0.7%,.,-7.3%
O=c1cc(-c2ccccc2)ss1,5.1%,.,.,-2.8%
Cc1cccn2c(=O)c3cc(C(=O)NC4CCCCC4)sc3nc12,0.2%,-1.1%,.,-6.5%
COc1ccc(NCc2n[nH]nc2-c2ccccc2)cc1Cl,-0.8%,2.0%,-3.0,-12.8%
CCCN(CCC)CCCNC(=S)Nc1ccc2nc3n(c(=O)c2c1)CCCCC3,0.1%,-10.5%,-2.5,2.1%
Cc1cc(=O)n2[nH]cc(-c3ccccc3)c2n1,-4.1%,2.5%,.,-4.7%
O=CN(CCN(C=O)CN1CCCCC1)CN1CCCCC1,5.4%,-3.4%,0.8,3.2%
CCOc1cc(N2CCOCC2)c(OCC)cc1NC(=O)COC(=O)COc1ccc(C#N)cc1,-0.4%,-0.2%,.,-6.6%
COC(=O)CSc1nc2sccc2c(=O)n1-c1ccccc1,1.7%,-6.7%,.,17.1%
CCOc1cc(/C=N/NC(=O)Cc2ccc(C(F)(F)F)cc2[N+](=O)[O-])c(Br)cc1OC,-0.4%,0.3%,0.0,18.2%
Cc1ccc(NC(=S)NC(=O)Cc2ccccc2)c(O)c1,-2.8%,-31.9%,.,7.2%
O=C(COC(=O)c1ccccc1-c1nc2ccccc2s1)NC1CCS(=O)(=O)C1 (stereo unspecified),-1.9%,-7.6%,2.3,11.9%
CC1(C)c2[nH]c3ccccc3c2C[C@H]2C(=O)N(N)CC(=O)N21,6.2%,-7.1%,.,-17.7%
CCCCC(OC(=O)c1ccco1)C(=O)NCc1ccc(C)cc1 (stereo unspecified),-0.1%,-2.4%,.,-0.2%
N#Cc1c(-c2ccccc2)nc(SCC(=O)Nc2nnc(C(F)(F)F)s2)[nH]c1=O,-4.4%,-0.2%,3.6,-0.2%
CCOC(=O)c1c(C)[nH]c(C(=O)/C(C#N)=C/c2ccc(OC(F)F)c(OC)c2)c1C,?,-39.4%,3.9,-6.9%
O=C(O)c1ccc(Sc2nnnn2-c2ccccc2)c([N+](=O)[O-])c1,?,-2.8%,2.0,15.9%
COc1ccc(C2N(c3ccc(Cl)cc3)N=C(C(C)=O)N(C)N2C(C)=O)cc1 (stereo unspecified),4.2%,4.6%,-13.3,-10.7%
O=C(c1ccc(CNc2c(N3CCCC3)c(=O)c2=O)cc1)N1CCN(C2CCCCC2)CC1,-0.3%,-7.2%,7.4,9.2%
CCCCNC(=O)C(=O)NC(C)CCc1ccccc1 (stereo unspecified),0.1%,-0.9%,2.3,1.1%
Cc1cc(C(=O)N2CCN(c3ncccn3)CC2)c2cc(F)ccc2n1,4.3%,-0.8%,1.0,-11.1%
COc1cccc(CNC(=O)CCC2CCCN(c3cc(C)nc(N4CCCC4)n3)C2)c1 (stereo unspecified),-0.7%,0.2%,-2.9,-16.7%
CN(CCc1ccccc1)C(=O)c1cccc(NC(=O)Cc2ccc([N+](=O)[O-])cc2)c1,-0.5%,.,.,30.3%
CC1=C(C(=O)NC(C)C)C2(CCC(C)CC2)OC1=O (stereo unspecified),0.1%,-2.8%,-4.2,3.6%
C=CCSc1nc2ccsc2c(=O)n1-c1cccnc1,-0.2%,-8.9%,8.5,-0.5%
COc1cc(/C=C/C(=O)O)cc(S(=O)(=O)NCCCC(=O)O)c1OC,3.7%,0.7%,0.4,3.8%
CC1(c2cccc([N+](=O)[O-])c2)CC(C)(C)N(C(=O)c2ccccc2)c2ccccc21 (stereo unspecified),1.2%,-4.6%,-3.5,13.5%
CCN(CC)S(=O)(=O)c1ccc(N/N=C(\C)c2ccncc2)nc1,1.0%,-4.9%,.,5.9%
Cc1cccc(NC(=O)C2CCCN(S(=O)(=O)c3c(C)nn(C)c3C)C2)c1 (stereo unspecified),-1.6%,.,.,47.7%
COc1ccc(/C=N/NC(=O)c2ccn[nH]2)cc1COc1ccc(Cl)cc1Cl,-2.7%,5.1%,6.5,19.6%
Cc1cc(C)c(C(=O)CSc2nnc(C)c(=O)[nH]2)cc1C,2.5%,-75.3%,1.4,-7.4%
COc1ccc(C(=O)CC(SCC(NC(C)=O)C(=O)O)c2ccc(Cl)cc2)cc1OC (stereo unspecified),2.6%,19.6%,.,-6.7%
Cc1ccc(C)c(N=Nc2nc3ccccc3n2C)c1,-2.3%,-17.1%,-1.4,-8.5%
CCN(CC)CCN(C(=O)c1ccc(Br)s1)c1nc2cc3c(cc2s1)OCCO3,-0.5%,-18.1%,2.1,-4.0%
CCN1CCCC1CNC(=O)c1cc2c(OC)cccc2[nH]1 (stereo unspecified),-5.7%,-3.9%,.,-18.1%
CCCOC(=O)CSc1nnc(-c2ccc(Cl)cc2Cl)o1,-2.9%,-1.4%,4.6,-25.5%
CC(=O)N1C[C@H]2CON(C)[C@H]2C[C@H]1c1ccccc1Br,-1.2%,.,.,8.8%
COc1ccc(Cc2c(O)nc(SC)n(C(C)=O)c2=O)cc1,?,0.5%,-0.4,-4.8%
CCOC(=O)N1CCN(C(=O)c2ccc(SC)cc2OC)CC1,0.7%,0.5%,1.3,18.6%
O=C(NC1CCN(C(=O)Nc2cccc(Cl)c2)CC1)C1CCCCC1,-1.9%,1.7%,.,-0.9%
Cn1nc(C(C)(C)C)cc1C(=O)NNC(=O)c1cccc(Cl)c1,-0.9%,16.0%,-3.2,-17.4%
CCc1ccc(C(=O)Cc2cc3cccc(OC)c3oc2=O)cc1,1.4%,-35.1%,.,7.1%
CC(C)(C)c1ccc(OCCn2ccccc2=O)cc1,3.1%,-49.7%,-7.9,0.3%
COc1cc(NC(=S)NCCc2ccc(S(N)(=O)=O)cc2)c(OC)cc1Cl,-1.0%,7.3%,4.4,-21.0%
COc1ccccc1NS(=O)(=O)c1cc(N=N/C(C(=O)Nc2ccc(Cl)cc2)=C(/C)O)ccc1C,-0.1%,.,.,-3.8%
CCOC(=O)c1cc(C)n(CCCN2CCOCC2)c1C,3.7%,-3.8%,4.9,13.3%

# Later entries:
canonical_smiles,Rango complex inh,miR-21 FLuc,GLA inh pH 4.5,Rango release inh
CCN1C(=O)/C(=C\N(C)C)c2ccccc21,0.8%,-4.4%,-10.3,-5.1%
O=c1c2ccccc2nc2c3ccccc3cnn12,-1.4%,-48.6%,-2.5,4.6%
CCCC(=O)Nc1nc2ccc(NC(=O)c3ccc(Br)o3)cc2s1,-5.9%,-3.5%,-2.8,-6.3%
CC(C)(C)OC(=O)N1CCN(C(=O)c2nc[nH]c2C(=O)N2CCN(c3ccccc3)CC2)CC1,-1.0%,.,.,-0.1%
CCc1c(Nc2ccccc2C)nc(N)[nH]c1=O,-2.5%,.,.,-7.1%
O=C(NCCN1CCCC(O)C1)c1cc(COc2c(F)cccc2F)on1 (stereo unspecified),-5.6%,-3.8%,.,-6.9%
O=C(c1ccccc1)c1cccn1CC(=O)N1CCN(C2CCCCC2)CC1,2.1%,-10.8%,10.1,2.4%
NS(=O)(=O)c1ccc(NC(=O)CCC(=O)N2CCOCC2)cc1,-1.4%,5.9%,.,-2.0%

# Arranged by the number under Rango complex inh (rising): some entries from above.
canonical_smiles,Rango complex inh,miR-21 FLuc,GLA inh pH 4.5,Rango release inh
CCCC(=O)Nc1nc2ccc(NC(=O)c3ccc(Br)o3)cc2s1,-5.9%,-3.5%,-2.8,-6.3%
O=C(NCCN1CCCC(O)C1)c1cc(COc2c(F)cccc2F)on1 (stereo unspecified),-5.6%,-3.8%,.,-6.9%
CCc1c(Nc2ccccc2C)nc(N)[nH]c1=O,-2.5%,.,.,-7.1%
CCN1C(=O)/C(=C\N(C)C)c2ccccc21,0.8%,-4.4%,-10.3,-5.1%
O=C(c1ccccc1)c1cccn1CC(=O)N1CCN(C2CCCCC2)CC1,2.1%,-10.8%,10.1,2.4%

# Continued.
canonical_smiles,Rango complex inh,miR-21 FLuc,GLA inh pH 4.5,Rango release inh
CC(=O)c1c(C)nc2sc3c(=N)n(N)cnc3c2c1-c1ccc(Cl)cc1,-1.7%,-2.8%,2.5,-16.8%
O=C(CCl)Nc1ccccc1C(=O)NCc1ccccc1,1.4%,?,?,18.4%
COC(=O)c1cnn(-c2ccc(F)cc2F)c1/C=N/NC(N)=S,-1.0%,19.1%,-3.1,-10.8%
CC(=O)Nc1ccc(S(=O)(=O)N2CCOCC2)cc1,-2.4%,-3.3%,0.1,14.4%
Cc1ccc(S(=O)(=O)N(CC(=O)NCCSCc2ccco2)c2cc(C)ccc2C)cc1,-1.5%,.,.,-1.8%
CC(=O)OC1CC(C)(C)N(OC(=O)CCCN2C(=O)c3ccccc3C2=O)C(C)(C)C1,0.4%,-5.6%,-4.7,11.0%
Cn1ncc2c(N3CCOCC3)ncnc21,-2.5%,-9.1%,5.7,0.2%
CCc1nc(SCC(=O)N2CCN(c3ccccc3)CC2)c2c(=O)n(C)c(=O)n(C)c2n1,.,-1.7%,3.1,.
Cc1cc(C)cc(NC(=O)CS(=O)(=O)c2ccccc2)c1,1.5%,-5.9%,.,-1.8%
CCN(CC)S(=O)(=O)c1cc(NS(=O)(=O)c2cccs2)ccc1C,4.0%,.,.,16.0%
CC(=O)Nc1ccc(NC(=O)C(C)OC(=O)c2ccccc2C(=O)c2ccc(Cl)c([N+](=O)[O-])c2)cc1 (stereo unspecified),-1.7%,?,-8.0,-10.6%
C=CCn1c(O)c(N=NC(=O)c2ccc3c(c2)OCO3)c2ccccc21,1.0%,-11.9%,10.9,8.5%
O=C(C1=C(O)C(=O)N(CCOCCO)C1c1cccs1)c1cccs1 (stereo unspecified),-0.8%,-7.7%,-7.1,16.4%
O=C(Cn1nnc2ccccc21)NNC(=S)NC1CCCCC1,0.6%,-3.0%,8.4,-4.0%
CC(C)N(Cc1ccccc1)S(=O)(=O)c1ccc(Cl)nc1,-2.1%,.,.,0.9%
CN(C)c1ccc(-c2ccc([C@H]3[C@@H]4C=CCC[C@@]4(C)C(=O)N3Cc3ccccc3)c(F)c2)cc1,0.1%,5.9%,9.4,40.9%
COc1ccc(Nc2nc(-c3cccc([N+](=O)[O-])c3)nc3ccccc23)cc1,-1.6%,-1.3%,-12.6,-4.4%
O=C(CN(Cc1ccco1)C(=O)CNS(=O)(=O)c1ccc(Cl)cc1)NCc1ccco1,-1.3%,-1.2%,.,-2.1%
C/C(=N/NC(=O)c1cccs1)c1cccc(NC(=O)C2CC2)c1,4.2%,-42.0%,-13.1,8.0%

# The list is partial (hit frequency here may not be typical).
